Screens deposited in PubChem by several laboratories.
RanGTP-Imp inh = disruptors of Ran-importin-beta complex formation – biochemical, FRET, CFP-Ran, YFP-importin-beta, homogeneous, primary screen | cell-free CFP-Ran/YFP-importin-beta FRET ratio | inhibition, % (test concentration not listed) | 300,000 compounds, 1.1% hits;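 active = most replicates above 15%; inconclusive = exactly half above 15%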;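 also: 0% = DMSO wells and 100% = Ran loaded with GDP instead of GTP; wells of about 40 µL received 100 nL stock; the first replicate is given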
B2AR ag = activates human beta-2 adrenergic receptor causing internalization. P07550. response, % (no concentration beside the values). Am2.2-beta2AR cells, FAP receptor internalization, flow cytometry; reference of the scale not given here. 340,000 compounds, 0.43% hits;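 active = response above a set limit, near 3 SD of response in nonfluorescent compounds, cut at about 42% in these data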;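 also: stock transfer was 100 nL into about 11 µL; a reference agonist was the positive control; negative values mostly stem from fluorescent compounds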
Target sequence (P07550 whole entry, looked up): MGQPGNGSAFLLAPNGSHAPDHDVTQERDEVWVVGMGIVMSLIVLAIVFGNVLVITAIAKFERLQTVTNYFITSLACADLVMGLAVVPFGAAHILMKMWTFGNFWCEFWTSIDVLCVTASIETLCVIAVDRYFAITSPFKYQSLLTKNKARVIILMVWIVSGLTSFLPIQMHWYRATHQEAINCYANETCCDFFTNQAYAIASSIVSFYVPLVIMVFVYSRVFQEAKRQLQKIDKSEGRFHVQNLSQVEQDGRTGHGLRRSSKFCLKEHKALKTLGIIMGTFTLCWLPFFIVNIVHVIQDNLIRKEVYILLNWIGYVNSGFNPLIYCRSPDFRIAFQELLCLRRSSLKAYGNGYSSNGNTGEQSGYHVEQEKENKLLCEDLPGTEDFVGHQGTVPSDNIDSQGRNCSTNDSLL
HNF4A DNA FP = change in binding of human HNF4 alpha to DNA | P41235 | HNF4a-FITC DNA binding, fluorescence polarization, 1 h | activity change, % at 10 µM | 360,000 compounds, 0.3% hits | AID 1224865; in the data active = activity change above about 30%, passing the limit was not always enough;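 also: controls were the assay level and a saturating level of protein; the project sought stronger binding though the title names inhibitors; some compounds called inactive have numbers as strong as hits; positive values seem to mean higher polarization but the record does not say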
Target sequence (P41235 whole entry, looked up): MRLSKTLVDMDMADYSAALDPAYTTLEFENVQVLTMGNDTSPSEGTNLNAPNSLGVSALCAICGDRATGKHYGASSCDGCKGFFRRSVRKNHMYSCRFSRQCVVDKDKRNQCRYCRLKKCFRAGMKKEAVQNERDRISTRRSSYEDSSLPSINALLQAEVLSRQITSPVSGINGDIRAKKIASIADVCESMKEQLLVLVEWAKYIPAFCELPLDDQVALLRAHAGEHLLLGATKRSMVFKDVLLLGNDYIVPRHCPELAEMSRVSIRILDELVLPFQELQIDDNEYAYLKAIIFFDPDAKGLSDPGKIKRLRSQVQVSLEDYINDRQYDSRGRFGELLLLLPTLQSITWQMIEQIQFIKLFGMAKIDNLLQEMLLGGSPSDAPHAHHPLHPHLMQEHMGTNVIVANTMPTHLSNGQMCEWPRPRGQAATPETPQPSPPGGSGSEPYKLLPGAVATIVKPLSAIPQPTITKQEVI
ALR H2O2 inh = human ALR oxidase inhibition via reduced H2O2. P55789. purified ALR, DTT oxidation, H2O2 HRP-luminol luminescence. inhibition, % (test concentration not listed). 290,000 compounds, 3.8% hits;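 active = mean and each replicate at 75% or more; inconclusive = only one of the two met; inactive = neither met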;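 also: stock transfer was 7.5 nL into about 7.5 µL; 0% = neutral wells and 100% = wells with inactivated enzyme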
Target sequence (P55789 whole entry, looked up): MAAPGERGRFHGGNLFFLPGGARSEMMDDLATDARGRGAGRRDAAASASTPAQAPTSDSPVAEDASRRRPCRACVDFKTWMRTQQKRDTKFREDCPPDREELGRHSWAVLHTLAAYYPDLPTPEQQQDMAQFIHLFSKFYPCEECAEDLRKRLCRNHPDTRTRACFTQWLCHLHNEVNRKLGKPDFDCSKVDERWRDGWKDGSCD
Vif TR-FRET = HIV-1 Vif–A3G interaction blockers – biochemical, TR-FRET, GST-Vif 1-94, biotin-A3G peptide, dose response retest, primary screen (AID 1117319) | TR-FRET GST-Vif / biotin-A3G peptide binding; higher % means a stronger effect; test concentration not given here; strong numbers were not always called active | one-dose inhibition, %; IC50 in µM for titrated hits | 260,000 compounds, 0.57% hits;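 active = above the screen mean plus three standard deviations and confirmed in dose response; inconclusive = results disagree or hit not tested in dose response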;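 also: Vif residues 1-94 fused to GST binding biotinylated APOBEC3G peptide 110-148; 0% = full assay without inhibitor and 100% = GST in place of GST-Vif; retest series ran down from 100 µM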
Calb FLC = affects C. albicans growth with fluconazole | C. albicans CaCi-2 (fluconazole-resistant clinical isolate) + fluconazole, Alamar Blue growth, 48 h | growth inhibition, % (no concentration beside the values) | 300,000 compounds, 0.57% hits;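 active = most replicates above 75%; inconclusive = exactly half above 75%; inactive = most below 75%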;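 also: all wells also contain fluconazole at 8 µg/ml as a sub-toxic cotreatment; 0% = median of DMSO wells and 100% = median of geldanamycin control wells; wells of about 8 µL received 7.5 nL stock; the first replicate is given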
LANA-H2A inh = blocks KSHV LANA binding to histone H2A/H2B; Q9QR71; cell-free LANA-H2A/H2B peptide, fluorescence polarization; inhibition, % (concentration not given with the values); 320,000 compounds, 0.6% hits; in the data active = inhibition mostly above about 10%, no sharp cut-off; inactive = mostly below about 6.7%;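 also: stock transfer was 7.5 nL into about 10 µL; 0% = median of vehicle wells and 100% = median of positive control wells; one replicate is shown; the record names a cut of 25% in any replicate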
Starred values were filed as active, the others as inactive; u = inconclusive; x = not tested or not shown.

SMILES | RanGTP-Imp inh | B2AR ag | HNF4A DNA FP | ALR H2O2 inh | Vif TR-FRET | Calb FLC | LANA-H2A inh
CC(=O)Oc1ccccc1C(=O)N(C1CCCCC1)C1CCCCC1 | -1.3 | -1 | -1.9 | -1 | x | -6 | 2.1
COc1cc(S(=O)(=O)NC2CCCCC2C)ccc1Cl (stereo not given) | x | -17 | -1.8 | -17 | -6% | x | 0.6
COc1ccc(S(=O)(=O)Nc2ccc3c(c2)C(=O)N([C@H](C)CO)C[C@H](C)[C@@H](CN(C)S(=O)(=O)c2ccc(F)cc2)O3)cc1 | x | -2 | 7.5 | -7 | x | x | -2.7
O=C(NCc1cccs1)c1ccc(Br)o1 | -2.2 | 0 | 3.6 | -3 | 6% | -3 | -5.6
COc1ccccc1/C=C/C(=O)NCC(=O)N/N=C/c1cccnc1 | -1.2 | -7 | 0.7 | -8 | x | -8 | 0.6
CN(C)S(=O)(=O)c1ccc(NC(=O)c2cc3ccccc3o2)cc1 | u | 10 | 1.0 | -10 | 71% | -33 | 5.1
O=C(NCCc1ccc2c(c1)OCCO2)c1ccc(F)cc1 | 5.3 | 1 | 2.4 | x | x | -1 | -2.7
CCOC(=O)Cn1cnc([N+](=O)[O-])n1 | -2.7 | 2 | -2.6 | x | 2% | 4 | x
CCCCC1OC23CCCCC2C(C#N)(C(=N)O3)C1(C#N)C#N (stereo not given) | 24* | 8 | 1.1 | -2 | 30% | -5 | -4.5
COc1ccc(Cc2nnc(N/N=C/c3ccc(Br)cc3)[nH]c2=O)cc1OC | -1.0 | -5 | 8.8 | -3 | 2% | 3 | 5.0
O=C(Nc1ccc(CN2CCOCC2)cc1)c1cccs1 | 7.2 | -2 | -2.8 | -7 | -2% | 17 | 0.2
O=C(Nc1ccccc1Cl)c1ccccc1S(=O)(=O)c1ccccc1[N+](=O)[O-] | 0.1 | 6 | 3.7 | x | 26% | 8 | 0.9
O=C(NC1CCN(C(=O)c2cccs2)CC1)c1ccccc1 | 0.1 | -5 | 5.2 | 2 | 32% | 6 | 2.3
O=C(NCc1ccccn1)c1ccc2c(=O)n(CCc3ccccc3)c(=O)[nH]c2c1 | -4.6 | 3 | 2.2 | x | 0% | -5 | 3.6
CCOC(=O)C1CCN(Cc2ccc(O)c3ncccc23)CC1 | -1.8 | 0 | -3.6 | -6 | 31% | 112* | 8.6
CC(C)NC(=S)N/N=C/c1ccc(N2CCOCC2)cc1 | 4.9 | 1 | 4.5 | 99* | 30% | -27 | -2.7
CC(C)N(C(=O)CN1CCC(c2nc3ccccc3[nH]2)CC1)C(C)C | 0.5 | -2 | 2.0 | -9 | x | -3 | 7.7
CC(=O)c1c(C)[nH]c(C(=O)N2CCN(S(=O)(=O)c3ccc(F)c(F)c3)CC2)c1C | -1.9 | -1 | 2.3 | -1 | -5% | -2 | -2.7
Cc1ccc(S(=O)(=O)N2CCCCC2)cc1NC(=O)c1ccc2c(=O)n3c(nc2c1)CCCCC3 | 1.7 | x | x | -2 | u | 17 | 0.3
Cc1ccc2c(c1)C(c1ccccc1)C(=O)O2 (stereo not given) | 0.1 | 5 | -0.7 | -4 | 9% | -4 | -3.2
CC(C)(C)c1ccccc1NC(=O)N1CCNC(=O)C1CC(=O)Nc1ccc(F)cc1 (stereo not given) | 5.3 | -4 | -1.1 | -2 | x | 7 | 1.3
Cc1nc(-c2ccc(Cl)cc2)sc1C1(C)CC(c2cccc(Cl)c2)=NO1 (stereo not given) | 8.2 | -3 | 7.2 | 1 | x | -5 | 6.7
COc1ccc(COC(=O)C2CC(=O)N(Cc3ccccc3)C2)cc1 (stereo not given) | x | -2 | 3.4 | x | -6% | x | -0.3
COc1cc(C(=O)NNC(=O)C2CSC3(C)CCC(=O)N23)cc(OC)c1OC (stereo not given) | x | -9 | -0.6 | -2 | -4% | x | -11

3 compounds out of the list, sorted by molar mass, ascending.
SMILES | RanGTP-Imp inh | B2AR ag | HNF4A DNA FP | ALR H2O2 inh | Vif TR-FRET | Calb FLC | LANA-H2A inh
Cc1ccc2c(c1)C(c1ccccc1)C(=O)O2 (stereo not given) | 0.1 | 5 | -0.7 | -4 | 9% | -4 | -3.2
O=C(NC1CCN(C(=O)c2cccs2)CC1)c1ccccc1 | 0.1 | -5 | 5.2 | 2 | 32% | 6 | 2.3
Cc1nc(-c2ccc(Cl)cc2)sc1C1(C)CC(c2cccc(Cl)c2)=NO1 (stereo not given) | 8.2 | -3 | 7.2 | 1 | x | -5 | 6.7

Next section:
SMILES | RanGTP-Imp inh | B2AR ag | HNF4A DNA FP | ALR H2O2 inh | Vif TR-FRET | Calb FLC | LANA-H2A inh
COc1ccc(C2c3ccc4ccccc4c3Oc3ncn(CCCO)c(=N)c32)cc1 (stereo not given) | 0.5 | 11 | 2.6 | -15 | 7% | 27 | 4.2
Cc1ccccc1OCCC(=O)NNC(=O)c1ccccc1F | x | -3 | -0.9 | x | x | x | -4.0
COCCNC(=O)COC(=O)c1ccc(S(=O)(=O)N2CCOCC2)cc1 | 1.8 | -5 | 2.1 | x | -2% | 14 | 0.9
Cc1cc(C)c(NC(=O)NC(=O)c2cccc(F)c2)c(C)n1 | 0.5 | -7 | 2.9 | -15 | 1% | -3 | 1.6
O=c1oc2ccccc2c2c1ncn2C1CCCCC1 | 2.1 | -23 | -3.8 | -4 | 4% | u | -4.1
O=C(c1ccc2c(c1)OCO2)N1CCC2(CC1)Oc1ccc(Cl)cc1C(=O)C21CC(c2cccnc2)=NO1 (stereo not given) | -1.1 | 0 | 0.4 | x | -6% | 84* | -1.0
COc1cccc(NS(=O)(=O)NC(=O)c2c[nH]c3ccccc23)c1 | 5.9 | 0 | -0.1 | -3 | 14% | 15 | -3.3
CCS(=O)(=O)N1CCN(S(=O)(=O)c2ccc(Cl)s2)CC1 | 1.5 | -1 | 2.5 | 0 | x | -7 | 1.8
CCc1nnc(NC(=O)CSc2nnc(-c3ccc(S(=O)(=O)N(CC)CC)cc3)n2CC)s1 | 0.8 | -3 | 4.5 | -2 | 13% | u | 1.3
c1coc(CN(Cc2cccs2)Cc2nnnn2C2CCCCC2)c1 | 0.2 | -2 | 0.3 | -11 | u | 0 | 0.9
S=C(NCCCN1CCOCC1)N1CCN(c2ccccc2)CC1 | 3.6 | 7 | 9.2 | 98* | x | 4 | 0.9
C=CCn1c(SCc2ccc([N+](=O)[O-])cc2)nnc1C(C)NC(=O)c1ccccc1 (stereo not given) | -0.3 | -5 | 1.5 | -3 | 1% | 2 | 0.0
O=c1oc2ccc(Cl)cc2nc1/C=C(\O)c1ccco1 | 3.4 | 6 | 13 | -1 | 5% | -2 | -2.8
Cc1ccc(C(=O)NC(=S)NCc2ccccc2)cc1Br | 4.2 | -11 | -1.5 | -8 | x | -1 | 5.6
O=C(NCCc1cccs1)C1CC(c2cccc([N+](=O)[O-])c2)=NO1 (stereo not given) | -2.0 | -7 | 1.1 | 9 | u | 13 | -6.2
O=C(NCCc1c[nH]c2ccccc12)c1ccc(S(=O)(=O)NCc2ccco2)cc1 | 2.8 | 6 | -1.6 | 18 | 33µM* | -4 | 1.6
C#CCCC(=O)c1ccccc1/C=[N+](\[O-])c1ccccc1 | x | 11 | 0.5 | -6 | x | x | -0.6
Cc1ccccc1OCc1n[nH]c(=S)n1-c1cccc(Cl)c1 | -3.1 | 0 | -1.1 | x | x | 16 | 4.2
COc1ccc(/C=C/c2c(-c3ccc(OC)cc3)oc(=O)c3cc(OC)c(OC)cc23)cc1 | x | 1 | 1.3 | -1 | x | x | 7.3
N=C1C(=O)NC(=O)C1c1ccccc1 (stereo not given) | x | 1 | 1.2 | x | -6% | x | x
CCOC(=O)c1ccccc1NC(=O)c1ccc(N(C)S(C)(=O)=O)cc1 | u | 5 | -2.0 | 1 | 4% | 11 | 6.0
O=[N+]([O-])c1ccc2nc(CCCO)[nH]c2c1 | -1.0 | -3 | 0.3 | -2 | x | 1 | -9.2
CC(=O)c1c(N2CCOCC2)nc2ccc(Br)cc2c1-c1ccccc1 | -0.5 | -32 | 2.5 | x | -6% | 0 | 5.8
COc1ccccc1NC(=S)N/N=C/c1ccc(O)cc1 | 3.1 | 2 | -3.3 | x | x | 3 | -1.4
O=C(CNC(=O)c1ccco1)OCC(=O)c1ccccc1 | 2.7 | -5 | -1.9 | -9 | 0% | 6 | -70
Cc1[nH]n(-c2ccc([N+](=O)[O-])cc2)c(=O)c1C=NCCN1CCN(C(=O)c2cccc(F)c2)CC1 | -1.7 | 19 | 2.1 | x | 3% | 22 | 1.4
O=C(COc1ccc(Cl)cc1Cl)NC1CCSC1=O (stereo not given) | 9.7 | 7 | 4.2 | -5 | 4% | -4 | -3.5
C=CCOc1ccc(C=Nc2ccc(Cl)cc2)c(O)c1 | -1.6 | 5 | 1.0 | -19 | -9% | -7 | -0.4
NS(=O)(=O)c1ccc(CCNC(=O)C2CCN(C(=O)Nc3ccccc3)CC2)cc1 | x | 4 | 1.4 | -4 | 0% | x | 2.2
Cc1nc(-c2ccccc2)sc1C(=O)CSc1ccc(Br)cc1 | -1.9 | 10 | -2.9 | -1 | -8% | 13 | 1.8
Cc1ccc(S(=O)(=O)Cc2ccc(C(=O)O)o2)cc1 | 1.2 | 8 | -24 | 2 | u | 4 | 4.2
COc1cc(C(=O)NCCN=C2NS(=O)(=O)c3ccccc32)cc(OC)c1OC | 7.1 | -2 | 0.9 | -6 | 8% | 4 | 1.3
CCc1ccc(C(C)NC(=O)/C(C#N)=C\c2cn[nH]c2-c2ccccc2)cc1 (stereo not given) | -3.2 | -10 | 2.6 | -8 | 24% | -26 | -1.6
Cc1ccccc1NC(=O)Cn1cnc2c(oc3nc4c(cc32)CCCC4)c1=O | 1.4 | -17 | 6.2 | 1 | 4% | 14 | -7.8
Cc1ccc(NS(=O)(=O)c2c(C(=O)N3CCCCCC3)c(C)n(C)c2C)c(C)c1 | 0.7 | -13 | 3.7 | -3 | x | -1 | 0.1
COc1cccc(NC(=O)c2ccc(S(=O)(=O)N3CCCC3)cc2)c1 | -1.2 | 11 | 1.6 | 3 | 4% | -12 | -3.6
N#CC1=C(N)Oc2cc3ccccc3cc2C1c1cccs1 (stereo not given) | -2.0 | 0 | -8.3 | x | -4% | 8 | -5.6
Cc1ccc2[nH]cc(C(=O)CN3CCN(c4ccccc4F)CC3)c2c1 | 2.5 | 3 | 1.6 | -2 | -1% | 10 | 4.4
O=C(Nc1c(-c2ccccc2)nc2ccccn12)c1ccccc1F | -0.8 | -3 | 1.2 | 28 | -3% | x | -0.5
Cc1cc(C(=O)OCC(=O)NCCCN2CCCC2=O)c2ccccc2n1 | -2.5 | -1 | 1.6 | 7 | 2% | -19 | -2.3
Cn1ncc(N=Cc2ccccc2O)c1C(=O)Nc1ccccc1 | -1.8 | 4 | -0.1 | -24 | u | 1 | 2.6
C=CCC1(/C=N/O)CCOC(C)(C)C1 (stereo not given) | 1.9 | -2 | -1.0 | -1 | -6% | -18 | 1.7
CCC(=O)Nc1cccc(NC(=S)NC(=O)c2cc3ccccc3o2)c1 | -1.7 | -5 | 1.1 | -5 | -8% | -9 | -0.2
COc1ccccc1N1CCN(CC(=O)NCc2ccc(Cl)cc2)CC1 | 1.9 | -1 | 5.5 | 29 | x | 1 | 2.7
Cc1ccc(-c2cnn3c(N4CCOCC4)cc(C)nc23)cc1 | -2.3 | 18 | -1.9 | 93* | -11% | 6 | -3.5
COc1ccc(C(=O)Nc2nc(C)c(C)s2)cc1OC | -3.7 | 2 | 1.6 | 99* | -2% | 0 | -2.0
CCCCOC(=O)Nc1nc2ccccc2s1 | 3.1 | -7 | -3.3 | 2 | 1% | -29 | -5.3
CCOC(=O)/C(=C\c1ccccc1)C(=O)c1cc(C(C)=O)c(Nc2ccccc2)s1 | 7.8 | 28 | -0.9 | 3 | -2% | -8 | 4.8
